StopGo RLuc – Primary qHTS Assay for Foot and Mouth Disease Virus Antivirals against NCGC Sytravon and CBC Compound Libraries: Renilla Luciferase Signal | HEK cells with a luciferase reporter of 2A StopGo recoding | Potency, µM (doses to about 57.5 µM), for inactives: at the highest dose signal change, negative = less light | 120,000 tested, 0.32% active; active means well fitted falling curve with a large enough effect; inconclusive means small, poorly fitted or top-dose-only effect; inactive means no such curve, though single readings can be large or run the other way; note: nearly all actives have a fitted effect of over 55% in size; overnight with compound
2A firefly – Primary qHTS Assay for Foot and Mouth Disease Virus Antivirals against NCGC Sytravon and CBC Compound Libraries: Firefly Luciferase Signal; HEK cells with a luciferase reporter of 2A StopGo recoding; 120,000 tested, 0.23% active; AID 1745856, 2022; Potency, µM (series often up to 57.5 µM), without a hit: at the highest dose signal change, negative = less light; active = well fitted falling curve with a large enough effect; inconclusive = small, poorly fitted or top-dose-only effect; inactive = no such curve, though single readings can be large or run the other way; note: nearly all actives have a fitted effect of over 60% in size; overnight with compound
Starred values were filed as active, the others as inactive; ? = inconclusive; [ ] = dose if it differs, or a comment. % is set by controls: 0 for no effect and ±100 for the full control effect; potency is the fitted concentration of half-maximal effect. The list is partial; the hit share may differ from the screen's.

The line under a structure holds: 2A firefly	StopGo RLuc
COc1cccc(C(c2sc3nc(-c4ccco4)nn3c2O)N2CCCC2)c1 (stereo not given)
 : 100%[activator]	10%
COC(=O)c1cccc(-n2c(CCC(=O)O)ccc2-c2cccs2)c1
 : 43%[activator]	10%
O=C(c1cn(-c2ccccc2)nn1)N1CCc2ccccc2C1
 : 34%[activator]	6%
Cc1cccc(-c2cc(C(=O)O)c3cccc(Cl)c3n2)c1
 : 0%	13%
CC(C)C(=O)N/N=C/c1ccco1
 : -1%	2%
COc1ccc2nc(N(Cc3cccnc3)C(=O)c3ccc4c(c3)OCCO4)sc2c1
 : 6%	-9%
COc1cc(/C=N/O)c(Br)cc1OC(C)C
 : 10%	3%
CC(C)(C)C(=O)NCC(=O)O
 : 2%	-13%
CCCCn1nc(NC(=O)c2cccc(Cl)c2)c2cc3ccc(C)cc3nc21
 : -7%	-12%
O=C(CCc1nc(CSc2n[nH]c(-c3ccc(Cl)cc3)n2)no1)Nc1ccc2ccccc2c1
 : 34%	-1%
CC(=O)c1ccc(NC(=O)C(C)SC2CCCC2)cc1 (stereo not given)
 : 102%[activator]	17%
Cn1c(NC(=O)c2ccco2)c(-c2cccc(Cl)c2)c(=O)c2ccccc21
 : 10%	-5%
CCOC(=O)C(NC(=O)NC)C(F)(F)F (stereo not given)
 : 19%	15%
O=C(N[C@H](CO)Cc1ccccc1)c1nc(-c2cccc3[nH]ccc23)no1
 : 29%	68%[activator]
Cn1cc(C(=O)NC2CCN(Cc3ccccc3)CC2)c2ccccc21
 : -14%	-17%
Clc1cccc(-n2nnnc2-c2ccccc2)c1
 : 4%	13%
CC(C)NC(=O)CN(C)CC(O)COc1cc(Cl)ccc1Cl (stereo not given)
 : 12%	-2%
COC(=O)c1cc2sc(Cl)cc2n1Cc1nc(-c2ccc(OC)cc2)oc1C
 : -3%	5%
CCOC(=O)C1=C(C)OC(N)=C(C#N)C1c1cccc(C(F)(F)F)c1 (stereo not given)
 : 30%	17%
CC(O)CNc1nc2c(c(=O)n(C)c(=O)n2C)n1Cc1ccccc1Cl (stereo not given)
 : -22%	?
COCCN1C(=O)c2ccccc2C(C(=O)NCc2ccco2)C12CCCCC2 (stereo not given)
 : 12%	9%
CCOc1cc(C)c(S(=O)(=O)NC2CC(C)(C)NC(C)(C)C2)cc1C
 : 3%	68%[activator]
Cc1noc(C)c1S(=O)(=O)Nc1c(NC2CCCC2)c2ccccc2oc1=O
 : 10%	10%
CN1CCN(c2ccc3c(c2)Oc2ccccc2CN(Cc2cn(Cc4ccccc4C(F)(F)F)nn2)S3(=O)=O)CC1
 : 0%	-18%
Cc1nc2ccc(S(=O)(=O)NC(CC(C)C)C(=O)N3CCN(c4ccc(F)cc4)CC3)cc2s1 (stereo not given)
 : -9%	-14%
CCCN1C(=O)c2oc3cc(C)cc(C)c3c(=O)c2C1c1ccc(F)cc1 (stereo not given)
 : -6%	-11%
CC1(C)CC(NC(=O)c2nc(-c3ccc4cc[nH]c4c3)no2)CC(C)(C)N1
 : -21%	-19%
COc1cccc(NC(=O)CCNS(=O)(=O)c2ccc(Br)s2)c1
 : 20%	170%[activator]
CCOC(=O)C(C)NC(=O)c1cc2c(=O)[nH]c3ccc(C)cc3c2s1 (stereo not given)
 : -1%	-7%
CN(C)C(Cc1ccccc1)C(=O)c1cc2ccccc2o1 (stereo not given)
 : 0%	90%[activator]

Four entries from above, ordered by count of non-hydrogen atoms, ascending:
The line under a structure holds: 2A firefly	StopGo RLuc
CCOC(=O)C1=C(C)OC(N)=C(C#N)C1c1cccc(C(F)(F)F)c1 (stereo not given)
 : 30%	17%
CCCN1C(=O)c2oc3cc(C)cc(C)c3c(=O)c2C1c1ccc(F)cc1 (stereo not given)
 : -6%	-11%
Cc1noc(C)c1S(=O)(=O)Nc1c(NC2CCCC2)c2ccccc2oc1=O
 : 10%	10%
Cc1nc2ccc(S(=O)(=O)NC(CC(C)C)C(=O)N3CCN(c4ccc(F)cc4)CC3)cc2s1 (stereo not given)
 : -9%	-14%

The listing continues:
The line under a structure holds: 2A firefly	StopGo RLuc
COC(=O)CNC(=O)c1ccc(CNC(=O)OC(C)(C)C)cc1
 : 1%	-3%
CN(Cc1cccc(Cl)c1Cl)C(C(=O)NC1CC1)c1ccc(F)cc1 (stereo not given)
 : 21%	0%
CCOc1ccc(-c2cc(CCCC(=O)NCCc3ccc(Cl)cc3)no2)cc1
 : ?	-4%
CCCN1CCN(CCCN2C(=O)c3ccccc3C2C(=O)NC2CCCCCC2)CC1 (stereo not given)
 : -20%	-17%
Cc1cc(C)c(NC(=O)CN2C(=O)CCn3nc(-c4cccn4C)cc32)c(C)c1
 : -18%	-23%
O=C(C1CCN(c2nc3ccccc3o2)CC1)N1CCOCC1
 : 42%[activator]	-16%
O=C(Cc1cccs1)Nc1c(NCC2CCCCC2)c2ccccc2oc1=O
 : -3%	52%[activator]
Cc1ccc(-c2nonc2NC(=O)c2ccco2)cc1
 : 3%	14%
O=C(COc1ccc(Cl)cc1)Nc1ccc(O)c(-c2nc3ccccc3s2)c1
 : -16%	2%
CCCCCCSC1=C(C#N)C(c2ccc(CC)cc2)CC(=O)N1 (stereo not given)
 : 18%	10%
COc1cccc(/C=C/C(=O)c2ccc(-c3ccccc3)cc2)c1
 : 17%	-2%[1.06 µM]
COc1ccc2nc(NC(=O)CCNC(=O)c3ccccc3Cl)sc2c1
 : 226%[activator]	37%[activator]
O=C(Nc1ccc(Cl)c(C(F)(F)F)c1)C1CCN(S(=O)(=O)c2cccc3nonc23)CC1
 : -29%	-1%
CCc1nc2nc(C)c(NS(=O)(=O)c3ccc(C(C)(C)C)cc3)c(=O)n2[nH]1
 : -11%	6%
O=C(Nc1cccc(C(F)(F)F)c1)C1CCCN1c1ncnc2ccccc12 (stereo not given)
 : -18%	-25%
COc1cccc(CNS(=O)(=O)c2cc(Br)cc3c2N(C(C)=O)C(C)C3)c1 (stereo not given)
 : -17%	224%[activator]
CCOC(=O)c1ccccc1NC(=O)N1CCN2CCCCC2C1 (stereo not given)
 : -2%	3%
Cc1ccc(CNc2c(C)c(C)nc3nncn23)cc1
 : 2.2µM*	2µM*
Nc1nc(CN2CCN(c3cccc(C(F)(F)F)c3)CC2)nc(N2CCCc3ccccc32)n1
 : -29%	?
CC(=O)c1ccc(N2CCN(c3ccc(NC(=O)c4ccc(F)cc4)cc3C(=O)O)CC2)cc1
 : -8%	-21%
COc1cc(Cl)c(C)cc1NC(=O)CSc1nnc(C)n1-c1ccccc1
 : 18%	4%
CCNS(=O)(=O)c1cc(C(=O)NC(C)COC)ccc1OC (stereo not given)
 : 9%	17%
COc1cccc(CNC(=O)Cn2c(=O)oc3cc(S(=O)(=O)N4CCC(C)CC4)ccc32)c1
 : ?	?
Cc1cccc(C)c1NC(=O)CS(=O)(=O)c1nc(-c2ccc(Cl)cc2)cn1-c1ccccc1
 : 106%[activator]	?
CCOc1cc(/C=C/C(=O)c2ccc(OCC(=O)O)c(OC)c2)cc(Cl)c1O
 : 0%	9%
O=C(CC1Sc2ccc(C(F)(F)F)cc2NC1=O)Nc1ccc(Cl)c(C(F)(F)F)c1 (stereo not given)
 : -20%	-20%
C/C(=N/Nc1ccccc1)c1ccc(Cl)s1
 : 64%[activator]	6%
COCCN(CCOC)C(=O)c1cccc2c(=O)c(C)c(-c3ccccc3)oc12
 : 3%	4%
Cc1cc(=O)n(Cc2cccc(Cl)c2)c2c1c(C)nn2-c1ccccc1
 : -16%	-20%
Cc1cc(Nc2cccc(O)c2)c2cccc(Br)c2n1
 : -6%	-5%

Single records, from the list above.
Profile of COc1cccc(CNS(=O)(=O)c2cc(Br)cc3c2N(C(C)=O)C(C)C3)c1 (stereo not given) : 2A firefly: -17%; StopGo RLuc: 224%[activator]
Profile of COc1cccc(CNC(=O)Cn2c(=O)oc3cc(S(=O)(=O)N4CCC(C)CC4)ccc32)c1 : 2A firefly: ?; StopGo RLuc: ?

Next part.
The line under a structure holds: 2A firefly	StopGo RLuc
O=C(CCc1ncc(-c2ccccc2Cl)o1)NCC1(N2CCCCC2)CCCCC1
 : -15%	-19%
CCCCN1CCc2nc(N3CCN(c4ncccn4)CC3)ncc2C1
 : 0%	-7%
COc1ccccc1-n1ccn2c(SCC(=O)N3CCN(c4ccccc4F)CC3)nnc2c1=O
 : 7%	-13%
COc1cc(C(=O)/C=C/c2cc(Br)c(O)c(OC)c2)ccc1OCC(=O)O
 : 10%	-3%
CCN(C(=O)COC(=O)c1n[nH]c2ccccc12)C1CCCCC1
 : 19%	-1%
CO[C@]12CC[C@@]3(C[C@@H]1[C@](C)(O)C(C)(C)C)[C@@H]1Cc4ccc(O)c5c4[C@@]3(CCN1CC1CC1)[C@H]2O5
 : 8%[22.9 µM]	?
CCC(C)Oc1nc2ccccc2nc1NS(=O)(=O)c1ccccc1 (stereo not given)
 : 2%	73%[activator]
O=C(OCc1ccccc1Cl)c1ccc(-c2nnn(Cc3ccc(F)cc3)n2)cc1
 : -5%	-1%
COc1ccc(CN(C(=O)Cc2n[nH]c(=O)c3ccccc23)C2CC2)cc1
 : -5%	-4%
Cc1ccc(NC(=O)CSc2nnc3[nH]c(=O)cc(C)n23)cc1Cl
 : -19%	-9%
O=S(=O)(c1ccc(-c2csc(-c3cccc(Cl)c3)n2)cc1)N1CCOCC1
 : -1%	10%
Cc1ccccc1Cn1nc(C)c(NC(=O)Nc2cccc(F)c2)c1C
 : 17%	11%
COc1ccccc1N1CCN(C(c2ccccc2)c2nnc(-c3ccccc3Cl)o2)CC1 (stereo not given)
 : 11%	-4%
CSc1ccc(/C=C(/C#N)C(=O)c2c(C)[nH]c3ccccc23)cc1
 : 22%	13%
CC(C)Cc1cc(C(=O)N2CCN(c3ccccc3)CC2)no1
 : 121%[activator]	-1%
CCN(C(=O)CN(C)S(=O)(=O)c1cc2c(cc1C)NC(=O)C(C)O2)c1ccc(OC)cc1 (stereo not given)
 : 47%[activator]	36%[activator]
COc1ccc(Nc2ncc3c(n2)CC(c2ccc(C)cc2)CC3=O)cc1 (stereo not given)
 : 23%	-2%
COc1ccc(CCNC(=O)c2c(O)nc3cc(C)ccn3c2=O)cc1OC
 : -10%	-12%
C=CCn1c(SC(C)C(=O)OC)nc2c1c(=O)[nH]c(=O)n2C (stereo not given)
 : 3%	-10%
CCCNC(=O)C(=O)c1c(-c2ccccc2)n(C)c2ccccc12
 : 75%[activator]	0%
Cc1cccc(Cn2c(NCCCO)nc3c2c(=O)n(C)c(=O)n3C)c1
 : -7%	5%
COc1cc(NC(=O)c2cc3ccccc3o2)ccc1NC(=O)c1ccccc1Cl
 : 13%	-11%
O=C(CCC1CCCCC1)Nc1ccc(F)cc1
 : 0%	0%
CCc1cc(Nc2ccc(OC)cc2OC)n2ncnc2n1
 : 69%[activator]	57%[activator]
C=C(C)Cn1c(SCC(=O)c2ccccc2)nc2sc3c(c2c1=O)CCCC3
 : 0%	?
FC(F)(F)c1ccccc1/C=N/N=C(c1ccccc1)c1ccccc1
 : -3%	2%
Cc1ccccc1C(O)(Cc1ccccc1)C1CN2CCC1CC2 (stereo not given)
 : -22%	-14%
O=C(C1COc2ccccc2O1)N1CCN(Cc2cc(=O)oc3cc(O)ccc23)CC1 (stereo not given)
 : ?	?
CC(C)CCSc1nc2c(c(=O)n(C)c(=O)n2C)n1C/C=C/c1ccccc1
 : 2%	-13%
CSc1ncc(C(=O)Nc2c(C)cccc2C)c(-c2ccccc2)n1
 : -6%	1%
Cc1ccnc(NS(=O)(=O)c2ccc(N)cc2)n1
 : -15%	14%
CCCn1c(=O)[nH]c(=O)c2c1nc(-c1cccc(OC)c1OC)n2CCN1CCOCC1
 : 10%	6%
Cc1ccc(C)c(OCCn2cnc3c2c(=O)n(C)c(=O)n3C)c1
 : ?	?
O=C(Cc1ccc(Cl)cc1)NCCc1cccc2cccnc12
 : 7%	31%
Cc1cccc(NC(=O)c2oc3ccccc3c2NC(=O)c2cc(=O)c3ccc(C)cc3o2)c1
 : -6%	-5%
COc1ccc(Cl)cc1NC(=O)c1c(NCc2ccc(C)o2)sc2c1CCCC2
 : -17%	-4%
Cc1nn(CC(=O)c2cc(C)n(CCC(C)C)c2C)c(=O)c(C#N)c1C
 : 20%	0%
Cc1ccc(Nc2nc(-c3cnc(N4CCN(C)CC4)nc3C)cc(=O)[nH]2)cc1
 : -29%	-16%
CCc1nn(CC(=O)NC(C)CC)c(=O)c2cc3occc3n12 (stereo not given)
 : 3%	2%
Cc1nc(C(=O)NC2CCCC2)ccc1C#N
 : 71%[activator]	7%
Cc1ccc(-n2c(=O)c3cccnc3n2CC(=O)Nc2ccc(Cl)cc2)cc1
 : 27%	-11%
CC1=C/C(=N/NC(=S)Nc2cc(C)ccc2C)CC1
 : 32%[activator]	27%
CCn1cnc2c1c(=O)n(CC(=O)Nc1ccc(N3CCCC3)cc1)c(=O)n2Cc1ccccc1
 : -1%	-13%
CN1CCN(C2=Nc3cc(F)ccc3Cc3ccccc32)CC1
 : -18%[11.5 µM]	-17%
Cc1cc(C(=O)C(Cl)(Cl)Cl)c(C)n1C
 : 15%	-2%
Cc1cc(=O)oc2c(C)c3oc(/C(=N/O)c4ccccc4)c(C)c3cc12
 : 6%	?
O=S1(=O)c2c(cccc2N2CCSCC2)Oc2ccccc2CN1Cc1cn(Cc2ccc(C(F)(F)F)cc2)nn1
 : -6%	53%[activator]
Cc1ccc(NC(=O)COc2cccc(F)c2)cc1OCc1cc(=O)n2c(ncn2C(C)C)n1
 : 2%	-1%
